supercomplex – modulators of mitochondrial supercomplex assembly, cell-based, luminescence, Hoechst nuclei count (AID 1645838) | z-score at 11 µM unless noted | Cells, luminescence/Hoechst cell count ratio, supercomplex reporter; stronger effect = higher value | 5% of 2,000 active;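 active means mean z-score of two plates above 1.96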;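 further: control cybrid cells; higher means more mitochondrial supercomplex formation; U2OS-based cells read after two days; 0 = mean of sample wells on the plate; doses worked out from stocks diluted about 900-fold with the highest of each compound shown; many of its hits are not listed in these tables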
supercomplex cell count – recorded beside supercomplex, whose call it bears; cell count; measured here: cell number, Hoechst nuclei count;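 nuclei per well as mean of two plates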
* marks the source's active call; other numbers are inactive results. Only part of the results is shown; rates above refer to the full screens.

| smiles | supercomplex | supercomplex cell count |
| --- | --- | --- |
| CC(N)Cc1c[nH]c2ccc(OCc3cccs3)cc12 (configuration not stated) | 0.59 | 6190 |
| c1ccc(CCNCc2ccccc2)cc1 | 0.26 | 7389 |
| O=C(O)C(=O)CBr | 0.052 | 6274 |
| CC(C)C1C(=O)NC(CO)Cc2cc(NC(=O)C=CC=Cc3ccc(C(F)(F)F)cc3)ccc2N1C (configuration not stated) | 0.64 | 5175 |
| CCOC(=O)Nc1ccc(NCc2ccc(F)cc2)cc1N | 0.024 | 5975 |
| COC1C(OC(=O)NC(=O)CCl)CC[C@]2(CO2)[C@@H]1[C@@]1(C)OC1CC=C(C)C (some centres not stated) | 2.7* | 1802* |
| O=C(NCCN1CCC2(CC1)C(=O)NCN2c1cccc(F)c1)c1ccc2ccccc2c1 | -0.44 | 3714 |
| Cc1[nH]cnc1CCN | 0.61 | 6300 |
| NCCc1c(Cl)cccc1Cl | -0.53 | 5250 |
| NCCc1ccccc1Br | -0.59 | 5285 |
| c1ccc(C2CC2NC2CCNCC2)cc1 (configuration not stated) | 0.96 | 4496 |
| OC1CN2CCC(O)C2C(O)C1O (configuration not stated) | -0.79 | 5518 |
| Clc1ccccc1C(c1ccccc1)(c1ccccc1)n1cccn1 | -0.68 | 6307 |

Taken from the listing (two entries):
| smiles | supercomplex | supercomplex cell count |
| --- | --- | --- |
| CC(N)Cc1c[nH]c2ccc(OCc3cccs3)cc12 (configuration not stated) | 0.59 | 6190 |
| c1ccc(CCNCc2ccccc2)cc1 | 0.26 | 7389 |

Some of the entries above, reformatted:
> NCCc1c(Cl)cccc1Cl
  supercomplex: -0.53	supercomplex cell count: 5250
> NCCc1ccccc1Br
  supercomplex: -0.59	supercomplex cell count: 5285
> c1ccc(C2CC2NC2CCNCC2)cc1 (configuration not stated)
  supercomplex: 0.96	supercomplex cell count: 4496
